High-throughput results as filed in PubChem BioAssay.
HCMV NEC inh = inhibitors of HCMV UL50-UL53 interaction, biochemical, HTRF. HCMV UL50-UL53 nuclear egress complex (human cytomegalovirus). normalized percent inhibition. inhibition, % (no concentration beside the values). 190,000 tested, 0.15% active;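 active means both replicates at 50% or more, plus weaker picks with an unusually low signal ratio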;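 further: stock transfer was 100 nL into about 20 µL; 0% = negative control wells and 100% = wells with untagged competitor protein; inactives centre near -12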
Sa growth 42C = S. aureus growth inhibition at 42 and 30 °C, primary screen, LtaS inhibitor project, RN4220, two temperatures; relative growth, % (concentration not given with the values); 170,000 tested, 0.53% active; OD600, 20 h, 42 °C; hits give low values;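 active means growth at 42 °C up to 50% and 20 or more points under that at 30 °C, or under 10% at both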;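 further: 300 nL library stock went into each well; scaled to the means of positive and negative controls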
GIV Gai3 FP = inhibitors of GIV peptide binding to Galpha-i3, primary screen, biochemical, fluorescence polarization, FITC-GIV GBA peptide, rat Galphai3; Guanine nucleotide-binding protein G(i) subunit alpha-3 (Rattus norvegicus), P08753; 90 min; hits give low values; scaled: aluminum fluoride 0%, vehicle 100%; percent of control (FP), % (test concentration not listed); 210,000 tested, 0.42% active;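 active means replicate mean at 85% of control or lower, very high polarization wells dropped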;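 further: wells of about 15 µL received 100 nL stock; the first replicate is given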
Target sequence (P08753 whole entry, looked up): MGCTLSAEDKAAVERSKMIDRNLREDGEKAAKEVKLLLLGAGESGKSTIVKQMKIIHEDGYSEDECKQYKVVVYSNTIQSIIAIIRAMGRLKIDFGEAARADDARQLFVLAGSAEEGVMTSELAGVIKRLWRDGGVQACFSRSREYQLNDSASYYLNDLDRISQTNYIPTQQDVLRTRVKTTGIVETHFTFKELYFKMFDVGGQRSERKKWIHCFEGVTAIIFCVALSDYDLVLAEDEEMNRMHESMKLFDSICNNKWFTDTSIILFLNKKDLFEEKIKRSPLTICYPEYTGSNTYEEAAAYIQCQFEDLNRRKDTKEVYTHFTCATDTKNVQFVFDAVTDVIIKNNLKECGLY
Sa growth 42C second temp = recorded beside Sa growth 42C, whose call it bears; relative growth, %; measured here: growth at 30 °C;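 optical density after 20 h as mean of two plates; 100% = untreated growth and lower means inhibition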
Active calls of the source: *; . = not tested or not shown; & = joins results of further samples.

| Molecule | HCMV NEC inh | Sa growth 42C | Sa growth 42C second temp | GIV Gai3 FP |
| --- | --- | --- | --- | --- |
| CC(=O)Nc1nc(-c2ccc3c(c2)NC(=O)CO3)cs1 | -25 | . | . | 101 |
| COC(=O)c1scc(-c2ccc(C)cc2)c1S(=O)(=O)Nc1cc(Cl)c(OC)cc1OC | . | 60 | 36 | 109 |
| COC(=O)c1ccccc1NC(=O)C1CCCN(C(=O)c2cnn(-c3ccc(F)cc3)c2-n2cccc2)C1 (stereo unspecified) | . | 94 | 88 | 102 |
| COc1ccc(C2C3=C(CC(C)(C)CC3=O)Nc3c(C(=O)Nc4ccc(F)cc4)cnn32)cc1 (stereo unspecified) | 10 | . | . | 102 |
| CCOc1ccccc1NC(=O)CSc1nc2cc(OC)c(OC)cc2c2nc(-c3ccccc3)nn12 | -11 | 105 | 91 | 98 |
| CC(=O)NC(CC(=O)Nc1nc2ccccc2[nH]1)c1ccccc1 (stereo unspecified) | -12 | 102 | 81 | . |
| O=C(c1ccccc1-c1ccccc1)N1CCOCC1 | -7 | 95 | 100 | 94 |
| O=C(CN1C(=O)c2ccccc2S1(=O)=O)NC1=NN(c2ccccc2)C(=O)C1 | 5 | 75 | 73 | 99 |
| CCOC(=O)c1cc(Nc2cc(OCC)ccc2OCC)c2cc(C)ccc2n1 | -16 | . | . | 102 |
| CCOC(=O)c1cc(-c2ccc(OC)cc2)n(CCC(=O)Nc2cccc(C(C)=O)c2)c1C | . | 160 | 97 | 101 |

Next structures follow:
| Molecule | HCMV NEC inh | Sa growth 42C | Sa growth 42C second temp | GIV Gai3 FP |
| --- | --- | --- | --- | --- |
| CCOc1ccc(N2C(=O)c3cc4occc4n3CC2(C)C(=O)NC2CCC(C)CC2)cc1 (stereo unspecified) | -10 | . | . | 103 |
| COc1ccc(N2CCN(c3ncnc4c3cnn4-c3ccc(C)c(Cl)c3)CC2)cc1 | . | 121 | 86 | 101 |
| O=C1N(c2ccccc2)C(c2ccc(Br)cc2)C12CCCCC2 (stereo unspecified) | -4 | 61 | 69 | . |
| COc1cc(C(C)n2ccnc2)cc(Br)c1O (stereo unspecified) | -22 | 114 | 89 | . |
| CCn1c(=O)c(=O)[nH]c2cc(C(=O)N3CCN(c4ccccc4F)CC3)ccc21 | 4 | 86 | 95 | . |
| O=C(O)Cc1csc2ccc(Cl)cc12 | 2 | 90 | 95 | 90 |
| CC(C)(C)c1cc2nc3c(c(=O)n2[nH]1)CN(Cc1ccccc1)C3=O | -10 | 100 | 89 | 99 |
| O=C1[C@@H]2CSC(c3ccc(F)cc3)N2C(=O)N1c1ccccc1 (stereo partly specified) | . | 80 | 88 | 101 |
| O=C(CSc1nnc2n(Cc3ccco3)c(=O)c3sccc3n12)NC1CCCCC1 | 3 | . | . | 106 |
| CC(=O)NC(C(=O)O)C1CCCC1 (stereo unspecified) | 6 | 97 | 83 | . |

(further entries)
| Molecule | HCMV NEC inh | Sa growth 42C | Sa growth 42C second temp | GIV Gai3 FP |
| --- | --- | --- | --- | --- |
| Fc1ccc(-c2csc(N3CCN(C/C=C\c4ccccc4)CC3)n2)cc1 | -20 | 93 | 84 | . |
| CCCc1cc(=O)[nH]c(Nc2ccc(C(=O)O)cc2)n1 | -5 | 97 | 89 | 101 |
| O=C(Nc1ccc2oc(-c3ccccc3)nc2c1)c1ccccc1 | -10 | 89 | 74 | 96 |
| CC1(c2ccc3noc(-c4ccccc4)c3c2)OCCO1 | -6 | 116 | 86 | . |
| Cc1ccc2[nH]c3c(c2c1)CCCC3O (stereo unspecified) | -13 | 98 | 86 | 97 |
| Cc1ccc(-c2nc3ncccc3o2)cc1N | -42 | 98 | 83 | 103 |
| O=C(Oc1ccc(OC(=O)c2ccncc2)cc1)c1ccncc1 | -6 | 94 | 92 | 109 |
| CCCCC1(C(=O)OCC)CC(C)(c2csc(N)n2)OC1=O (stereo unspecified) | -3 | 111 | 86 | . |
| COc1ccc(CCNC(=O)Cn2c(=O)cc(C(F)(F)F)c3c(C)nn(C)c32)c(OC)c1 | . | 104 | 89 | 106 |
| Cc1ccc(CC/C=N/N=C2\NC(=O)CS2)o1 | 10 | 88 | 107 | 104 |

(list continues)
| Molecule | HCMV NEC inh | Sa growth 42C | Sa growth 42C second temp | GIV Gai3 FP |
| --- | --- | --- | --- | --- |
| COc1ccc2oc(C(=O)N(C)Cc3ccc(Br)s3)c(C)c2c1 | -14 | 86 | 78 | . |
| Cc1ccc(Nc2c(-c3ccc(N4CCOCC4)cc3)nc3ccc(Cl)cn23)cc1 | -20 | 101 | 88 | 104 |
| CCC(C)(C)c1ccc(CC(C)CN2C[C@@H](C)O[C@@H](C)C2)cc1 (stereo partly specified) | -29&3 | 86 | 85 | 103 |
| OCCOc1ccc(C2=NCCO2)cc1 | -7 | 101 | 98 | 105 |
| O=C(NCCc1csc(-c2ccc(Cl)cc2)n1)c1cccs1 | . | 68 | 72 | 106 |
| Cc1ccc(Nc2[nH]c(=O)c3ccccc3c2C(=O)c2ccncc2)cc1 | -17 | 105 | 88 | 110 |
| COc1ccc(S(=O)(=O)N(CC(=O)Nc2cccc(C)c2)c2ccc(C)cc2)cc1OC | . | 127 | 84 | 105 |
| CCC(=O)N(c1nnc(SCC(=O)Nc2c(C)nn(-c3ccccc3)c2C)s1)C1CC1 | -36 | 78 | 88 | . |
| O=S(=O)(c1ccc(NN=C2CCCC2)nc1)N1CCCCC1 | -4 | 86 | 87 | . |
| Cc1cc(NC(=O)Cn2c(=O)n(CC(=O)NCCc3ccccc3)c(=O)c3ccccc32)n[nH]1 | 12 | 95 | 92 | 99 |

3 entries picked at random from the list so far, as already listed:
| Molecule | HCMV NEC inh | Sa growth 42C | Sa growth 42C second temp | GIV Gai3 FP |
| --- | --- | --- | --- | --- |
| O=S(=O)(c1ccc(NN=C2CCCC2)nc1)N1CCCCC1 | -4 | 86 | 87 | . |
| CCC(C)(C)c1ccc(CC(C)CN2C[C@@H](C)O[C@@H](C)C2)cc1 (stereo partly specified) | -29&3 | 86 | 85 | 103 |
| Cc1cc(NC(=O)Cn2c(=O)n(CC(=O)NCCc3ccccc3)c(=O)c3ccccc32)n[nH]1 | 12 | 95 | 92 | 99 |

Continued:
| Molecule | HCMV NEC inh | Sa growth 42C | Sa growth 42C second temp | GIV Gai3 FP |
| --- | --- | --- | --- | --- |
| O=C(c1cc(-c2ccc(F)cc2)nc2ccccc12)N1CCOCC1 | -43 | 112 | 84 | . |
| Cc1cccc(CSc2nc3ccncc3n2CC(=O)N2CCCC2)c1 | . | 100 | 92 | 104 |
| CCOc1ccc(-c2noc(N3CCC(C(=O)N4CCCCC4)CC3)n2)cc1OC | 0 | . | . | 100 |
| CCOC(=O)c1ccc(NC(=O)C2=C(C)C(=O)OC23CCCCCC3)cc1 | . | 107 | 93 | 98 |
| Cc1ccnc(SCc2cc(=O)n3[nH]c(C)nc3n2)n1 | -8 | 106 | 98 | 112 |
| O=C(O)CCCC(=O)Nc1nc2nccc(-c3ccccc3)n2n1 | 1 | 94 | 93 | 110 |
| Fc1ccc(OCc2nnc3sc(COc4ccccc4)nn23)cc1 | -6 | . | . | 106 |
| Cc1ccc(C2CC(=O)n3nc(-c4ccc(Cl)cc4)nc3S2)cc1 (stereo unspecified) | 20 | 98 | 99 | 96 |
| O=C1NC(=O)C2C1Sc1[nH]c(=O)sc1C2c1ccco1 (stereo unspecified) | -86 | 85 | 57 | 78* |
| NNc1ncccc1C(=O)O | 10 | 86 | 78 | 105 |

Single records, from the list above.
Record of Fc1ccc(OCc2nnc3sc(COc4ccccc4)nn23)cc1 = HCMV NEC inh = -6; Sa growth 42C = .; Sa growth 42C second temp = .; GIV Gai3 FP = 106
Record of CCOC(=O)c1ccc(NC(=O)C2=C(C)C(=O)OC23CCCCCC3)cc1 = HCMV NEC inh = .; Sa growth 42C = 107; Sa growth 42C second temp = 93; GIV Gai3 FP = 98
Record of Cc1ccnc(SCc2cc(=O)n3[nH]c(C)nc3n2)n1 = HCMV NEC inh = -8; Sa growth 42C = 106; Sa growth 42C second temp = 98; GIV Gai3 FP = 112

Further results.
| Molecule | HCMV NEC inh | Sa growth 42C | Sa growth 42C second temp | GIV Gai3 FP |
| --- | --- | --- | --- | --- |
| O=S(=O)(Nc1cccc(-c2ccc(N3CCCC3)nn2)c1)c1ccccc1 | -39 | 105 | 84 | 107 |
| CSC1=NSC2=NC(=O)/C(=C\c3cccc4ccccc34)C(=N)N12 | -72 | 95 | 54 | 98 |
| O=C(CCCc1nnc2c(=O)n(-c3ccc(F)cc3)ccn12)NCCc1c[nH]c2ccccc12 | -19 | . | . | 104 |
| COc1ccc(C(=O)CC(C(=O)c2ccccc2)c2ccccc2)cc1 (stereo unspecified) | -49 | 82 | 81 | 97 |
| CN(C)c1ccc(/C=N/NC(=O)C(O)(c2ccccc2)c2ccccc2)o1 | -15 | 95 | 79 | 136 |
| Cc1ccc2c(c1)c(=O)c1ccccc1n2CC(=O)Nc1ccc(C(F)(F)F)cc1 | 8 | . | . | 108 |
| Cc1ccc(-c2c3c(=O)n(C)c(=O)n(C)c3c3c(C)cc(C)nn23)cc1 | -8 | 109 | 89 | 109 |
| O=C(c1cc(-c2csc(-c3ccccn3)n2)c[nH]1)N1CCCC1 | -59 | 64 | 85 | . |
| O=C1NC2(CCOc3ccccc32)C(=O)N1CCOc1c(Cl)cccc1Cl (stereo unspecified) | -28 | 74 | 89 | . |
| COC(=O)c1cc(S(=O)(=O)N2c3ccccc3CC2C)c[nH]1 (stereo unspecified) | . | 102 | 77 | 105 |

(listing goes on)
| Molecule | HCMV NEC inh | Sa growth 42C | Sa growth 42C second temp | GIV Gai3 FP |
| --- | --- | --- | --- | --- |
| CCOc1ccc(NC(=O)C2CCCN(c3nnc(C)c4c(C)n(-c5ccccc5)nc34)C2)cc1 (stereo unspecified) | . | 99 | 94 | 107 |
| COc1ccc(CC(=O)Nc2cc(C)on2)cc1OC | -1 | 109 | 88 | . |
| O=C(c1ccccc1)n1nc(-c2cccnc2)nc1NCc1ccc(F)cc1 | 14 | . | . | 103 |
| COc1ccc(Br)cc1CNCc1c(C(=O)O)c(C)n(Cc2ccccc2C)c1C | -14 | 101 | 67 | 99 |
| CN(C)Cc1ccc(CSCCNC(=O)Nc2ccccc2)o1 | 7 | 103 | 104 | 116 |
| O=C(CCS(=O)(=O)c1ccccc1)N(Cc1ccccn1)c1nc2ccccc2s1 | 0 | 92 | 97 | 102 |
| NNC(=S)NCc1ccc(F)cc1 | -20 | 103 | 83 | 97 |
| CN(C)c1ccc(C(CNC(=O)CC(C)(C)C)N(C)C)cc1 (stereo unspecified) | -12 | . | . | 104 |
| Cc1ccc2c(c1)c1c(n2CCC#N)C(=O)CCC1 | -36 | 99 | 85 | 99 |
| CCC(C)Nc1ncnc2c1cnn2-c1ccc(F)cc1 (stereo unspecified) | . | 86 | 85 | 104 |

More records follow:
| Molecule | HCMV NEC inh | Sa growth 42C | Sa growth 42C second temp | GIV Gai3 FP |
| --- | --- | --- | --- | --- |
| O=C(NCCC1=CCCCC1)c1cc(-c2cccnc2)nc2ccccc12 | -11 | . | . | 107 |
| Cc1cc(C)cc(Cc2cnc(NC(=O)C3=Cc4ccccc4OC=C3)s2)c1 | -5 | . | . | 103 |
| COCCN1C(=O)/C(=C2/C(=O)N(OC)c3ccccc32)SC1=S | -8 | 86 | 86 | . |
| COC(=O)c1ccc(NS(=O)(=O)c2ccc3[nH]c4c(c3c2)CCCCC4)cc1 | . | 118 | 96 | 109 |
| CCN(CC)CCCN1C(=O)C(O)=C(C(=O)c2ccc(C)o2)C1c1cccnc1 (stereo unspecified) | -14 | 112 | 91 | 100 |
| O=C(O)CC1(CC(=O)Nc2cccc3nonc23)CCCCC1 | -85 | 89 | 73 | 100 |
